# AF4-AF9 inh: inhibitors of AF4 peptide binding to AF9, primary screen, biochemical, AlphaScreen, biotin-AF4 peptide, FLAG-AF9, single point. inhibition, % at 10 µM. AID 651704, 2012. Protein AF-9 (Homo sapiens), P42568. 0.47% of 350,000 active;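 active = every replicate reaching a set inhibition limit, whatever the replicate mean, cut at about 25% in these data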;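 also: 0% = plate neutral control median and 100% = total signal loss; the record names both 10 and 1 µM as test concentration; the first replicate is given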
# Target sequence (P42568 whole entry, looked up): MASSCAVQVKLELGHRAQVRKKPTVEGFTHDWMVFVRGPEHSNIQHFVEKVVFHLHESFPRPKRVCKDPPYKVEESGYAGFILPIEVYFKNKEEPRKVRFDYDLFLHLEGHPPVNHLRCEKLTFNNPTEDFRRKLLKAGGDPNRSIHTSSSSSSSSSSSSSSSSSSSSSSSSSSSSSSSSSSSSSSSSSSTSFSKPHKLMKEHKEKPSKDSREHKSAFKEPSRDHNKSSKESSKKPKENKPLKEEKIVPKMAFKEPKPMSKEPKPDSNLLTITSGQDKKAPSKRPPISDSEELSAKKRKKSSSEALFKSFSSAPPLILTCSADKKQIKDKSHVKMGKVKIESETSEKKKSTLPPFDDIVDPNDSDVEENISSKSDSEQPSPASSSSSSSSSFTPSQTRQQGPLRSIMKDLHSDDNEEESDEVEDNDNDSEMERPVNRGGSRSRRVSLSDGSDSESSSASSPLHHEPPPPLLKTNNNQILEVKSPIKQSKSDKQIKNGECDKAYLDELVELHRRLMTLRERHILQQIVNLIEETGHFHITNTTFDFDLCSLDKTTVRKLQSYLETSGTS
# Ecoli rRNA inh: reduced GFP signal of wild-type E. coli, primary screen, bacterial rRNA inhibitor project, GFP/RFP fluorescence, OD600, single point; E. coli WT GFP vs humanized-ribosome RFP mutants, 24 h; hits give low values; DMSO median 0, no signal -100; AID 720706, 2013; GFP signal change (wild-type ribosome), % (no concentration beside the values); 1.6% of 350,000 active;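 active = significant combined selectivity score with lowered wild-type GFP, culture density cut under 30%, mutant RFP and density less affected; inactive = any of these conditions unmet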; also: one replicate is shown; some compounds called inactive have numbers as strong as hits
# FGF22 binding: binders of human FGF22 protein, primary screen, FGF22 synaptogenesis inhibitor project, biophysical, thermal shift, single point; Fibroblast growth factor 22 (Homo sapiens), Q9HCT0; recombinant FGF22 thermal shift, SYPRO orange fluorescence; percent of sucrose octasulfate shift, DMSO zero; calls only at 9.99 µM; 1.5% of 340,000 active;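 active = melting point raised past a set limit in the mean and every replicate; three in four hits are not shown here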
# Target sequence (Q9HCT0 whole entry, looked up): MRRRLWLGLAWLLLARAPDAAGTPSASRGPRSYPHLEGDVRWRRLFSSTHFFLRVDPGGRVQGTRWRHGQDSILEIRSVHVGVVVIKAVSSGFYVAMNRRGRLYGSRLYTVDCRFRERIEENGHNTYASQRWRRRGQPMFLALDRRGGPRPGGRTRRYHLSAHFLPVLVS
# Ecoli rRNA inh OD600: further read-out of Ecoli rRNA inh, marked with its call; OD600 change, %; measured here: OD600 growth;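 optical density of the mix in the first replicate; 0 = DMSO median and -100 = no signal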
# Ecoli rRNA inh RFP: also measured in Ecoli rRNA inh; calls as there; RFP signal change, %; measured here: RFP humanized mutant strains;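 first replicate; 0 = DMSO median and -100 = no signal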
# * = called active by the depositor; i = inactive; & = joins results of further samples. This is a subset; the hit share may differ from the screen's.
SMILES,AF4-AF9 inh,Ecoli rRNA inh,Ecoli rRNA inh OD600,Ecoli rRNA inh RFP,FGF22 binding
COCCCNC(=O)CC[C@H]1O[C@@H](n2cnc3c(NC(=O)c4ccccc4)ncnc32)[C@H](O)[C@@H]1O,-1.5,6,15,-2.6,i
CN1CCN(C(=O)C[C@H]2C[C@@H]3c4cc(NC(=O)NC5CCCC5)ccc4O[C@@H]3[C@H](CO)O2)CC1,-1.0,3,-4,-1.4,i
CCN1C(=O)[C@H]2[C@@H](c3ccc(OC)cc3)N[C@]3(CCCN(Cc4ccc(F)cc4)C3=O)[C@H]2C1=O,-0.7,-4,4,-1.6,i
C[C@@H]1CN([C@@H](C)CO)C(=O)Cc2cc(NS(=O)(=O)c3cn(C)cn3)ccc2O[C@@H]1CN(C)S(=O)(=O)c1ccc(F)cc1,-0.5,3,7,0.2,i
CN1C(=O)c2cc(NS(=O)(=O)c3ccccc3F)ccc2OC[C@@H]2O[C@H](CC(=O)NC3Cc4ccccc4C3)CC[C@@H]21,0.6,-5,-26,2.2,i
COC(=O)[C@]12C[C@H](CC(=O)N3CCN(C(=O)C4CC4)CC3)C(=O)N(Cc3ccccc3)C1=C[C@H](C(C)C)O[C@@H]2C1CC1,-2.3,11,-3,3.7,i
C[C@H](CO)N1C[C@H](C)[C@H](CN(C)Cc2ccc(C(=O)Nc3ccccc3N)cc2)Oc2c(NS(=O)(=O)c3cccs3)cccc2C1=O,0.1,-4,-4,-2.5,i
O=C(Cc1ccccn1)NCC[C@@H]1CC[C@@H](NC(=O)c2ccccc2F)[C@@H](CO)O1,-4.6,2,-1,-2.5,i
C[C@@H]1CN([C@H](C)CO)C(=O)c2cc(C#CC(C)(C)O)cnc2O[C@H]1CN(C)C(=O)c1ccccc1F,-3.6,3,0,-3.3,i
C[C@H](CO)N1C[C@H](C)[C@H](CN(C)Cc2ccc(-c3ccccc3)cc2)Oc2ccc(NC(=O)Nc3ccc(F)cc3)cc2CC1=O,-10.0,-1,-7,1.9,i
CCNC(=O)C[C@@H]1CC[C@H](NC(=O)C2CCC2)[C@@H](CO)O1,-2.4,0,2,-0.5,i
COc1ccc2c3c([nH]c2c1)[C@@H](CO)N(C(=O)c1cccnc1)CC31CCN(C(=O)c2cccnc2)CC1,-19,6,10,-2.0,i
Nc1ccc(-c2nnn(Cc3ccccc3)n2)cc1,-2.6,5,2,-0.1,i
CCOC(=O)c1nc2ccc(C)cc2c2c1C1CC(c3c(Cl)cccc31)N2C(=O)OCc1ccccc1 (centres undefined),3.9,-2,-1,-4.3,i
CC=Cc1ccc2n(c1=O)C[C@H]1[C@H](CO)[C@@H](C(=O)NCc3cccc(F)c3)[C@@H]2N1S(C)(=O)=O (mixture of isomers),-0.7,-2,-5,0.2,i
Cc1ccc(S(=O)(=O)Nc2ccc3c(c2)C(=O)N([C@@H](C)CO)C[C@@H](C)[C@H](CN(C)C(=O)NC(C)C)O3)cc1,-3.2,1,15,-0.9,i
COc1ccc(NC(C)=O)cc1S(=O)(=O)NCc1ccc2c(c1)OCO2,0.4,6,20,-1.5,i
CC(C)NC(=O)Nc1ccc2c(c1)CC(=O)N([C@H](C)CO)C[C@H](C)[C@@H](CN(C)CC1CC1)O2,-1.8,-1,-1,-0.8,i
CC(C)C(=O)N1CCC1(C)C(=O)Nc1ccc2cn[nH]c2c1 (centres undefined),-6.7,8,19,-0.2,i
C[C@H]1CN([C@@H](C)CO)C(=O)c2cc(C3=CCCC3)cnc2O[C@H]1CN(C)C(=O)CN1CCOCC1,-0.7,9,10,-3.6,i
O=C(CN1CCOCC1)N1CC[C@@H]2[C@H](CO)Nc3ccc(-c4ccc(F)cc4)cc3[C@@H]21,1.0,1,0,-1.9,i
C[C@H]1CN([C@@H](C)CO)C(=O)c2cc(C#CC(C)(C)O)cnc2O[C@H]1CN(C)C(=O)C1CCOCC1,-3.2,14,15,-4.1,i
C/C=C/c1ccc2c(c1)O[C@@H](CN(C)C(=O)CC)[C@@H](C)CN([C@H](C)CO)S2(=O)=O,-1.8,-6,-7,0.0,i
COc1ccc(NC(=O)Nc2ccc3c(c2)CC(=O)N([C@@H](C)CO)C[C@@H](C)[C@@H](CN(C)Cc2ccc4c(c2)OCO4)O3)cc1,7.0,-1,-8,1.7,i
CCCNC(=O)N(C)C[C@H]1Oc2cc(C#C[C@@H](C)O)ccc2S(=O)(=O)N([C@H](C)CO)C[C@@H]1C,1.1,8,13,-1.4,i

# 4 of these compounds in a different format:
# Fields: AF4-AF9 inh, Ecoli rRNA inh, Ecoli rRNA inh OD600, Ecoli rRNA inh RFP, FGF22 binding
C[C@H](CO)N1C[C@H](C)[C@H](CN(C)Cc2ccc(-c3ccccc3)cc2)Oc2ccc(NC(=O)Nc3ccc(F)cc3)cc2CC1=O
→ -10.0, -1, -7, 1.9, i
CCNC(=O)C[C@@H]1CC[C@H](NC(=O)C2CCC2)[C@@H](CO)O1
→ -2.4, 0, 2, -0.5, i
COc1ccc2c3c([nH]c2c1)[C@@H](CO)N(C(=O)c1cccnc1)CC31CCN(C(=O)c2cccnc2)CC1
→ -19, 6, 10, -2.0, i
Nc1ccc(-c2nnn(Cc3ccccc3)n2)cc1
→ -2.6, 5, 2, -0.1, i

# The list continues.
SMILES,AF4-AF9 inh,Ecoli rRNA inh,Ecoli rRNA inh OD600,Ecoli rRNA inh RFP,FGF22 binding
C[C@@H]1CCCCO[C@H](CN(C)C(=O)NC2CCCCC2)[C@@H](C)CN([C@H](C)CO)C(=O)c2cc(NS(=O)(=O)c3cccs3)ccc2O1,-6.2,1,4,0.9,i
C[C@H]1CN([C@@H](C)CO)C(=O)c2cc(NC(=O)Nc3ccc(C(F)(F)F)cc3)ccc2O[C@H]1CN(C)Cc1ccc2c(c1)OCO2,2.8,-35,-34,28,i
COCCNC(=O)C[C@@H]1C=C[C@H](NC(=O)NC2CCCCC2)[C@H](CO)O1,0.1,0,8,-0.3,i
Cc1ccc(-c2cnc3c(c2)C(=O)N([C@@H](C)CO)C[C@H](C)[C@H](CN(C)C(=O)Cc2ccccc2)O3)cc1,-1.2,-3,-7,1.4,i
C[C@@H]1CCCCO[C@@H](CN(C)S(=O)(=O)c2ccc(Cl)cc2)[C@@H](C)CN([C@@H](C)CO)C(=O)c2cc(NS(=O)(=O)c3cn(C)cn3)ccc2O1,-1.2,-3,4,-0.1,i
CNC[C@H]1Oc2ccc(NC(=O)Nc3ccc(C(F)(F)F)cc3)cc2C(=O)N([C@@H](C)CO)C[C@H]1C,3.4,-7,-18,7.5,i
C[C@H]1CN([C@@H](C)CO)C(=O)CCCn2nncc2CO[C@@H]1CN(C)C(=O)c1ccccc1,-0.6&-1.0,3&1,7&13,-1.2&2.9,i
CN1CCN(C2CN(Cc3cn(Cc4ccccc4F)nn3)S(=O)(=O)C2)CC1 (centres undefined),-0.8,3,1,-5.1,i
Cc1ccc(-c2ccc([C@@H]3[C@H]4CN(C(=O)CN5CCOCC5)CC(=O)N4[C@H]3CO)cc2)cc1,-1.3,-3,2,3.5,i
CO[C@H]1CN(C)C(=O)c2ccc(NC(=O)C3CCCCC3)cc2OC[C@@H](C)N(Cc2nccs2)C[C@@H]1C,-2.1,-9,-10,0.0,i
C[C@H]1CN([C@@H](C)CO)C(=O)c2cc(-c3cccnc3)cnc2O[C@H]1CN(C)S(C)(=O)=O,-4.1,-2,2,0.1,i
CCS(=O)(=O)N[C@@H]1CC[C@@H](CC(=O)N2CCCCC2)O[C@@H]1CO,-5.8,1,7,0.6,i
COc1ccc2c3c([nH]c2c1)[C@H](CO)N(C(=O)CN(C)C)CC31CCN(CC2CCCCC2)CC1,13,4,6,-2.1,i
Brc1ccc(C2Nc3cccc4cccc(c34)N2)cc1,6.1,-10,19,-9.7,i
CCCN(C)C[C@@H]1OCCCC[C@@H](C)Oc2ccc(NS(=O)(=O)c3cccs3)cc2C(=O)N([C@@H](C)CO)C[C@@H]1C,2.6,-1,-1,1.4,i
C[C@H]1CN([C@@H](C)CO)C(=O)CCCn2cc(nn2)CO[C@@H]1CN(C)C(=O)Nc1ccc(N2CCN(C)CC2)cc1,-1.3&5.2,21&0,16&2,2.8&-1.5,i
COc1ccc(/C=C/C(=O)OCC(=O)N2c3ccccc3CC2C)c(OC)c1 (centres undefined),-5.8,3,-5,1.4,i
C[C@H](CO)N1C[C@H](C)[C@@H](CN(C)Cc2cncnc2)Oc2cc(Br)ccc2S1(=O)=O,-0.4&-1.9&-0.9,1&-3,-5&-7,4.6&-3.5,i
C/C=C/c1ccc([C@@H]2[C@@H](CO)N3CCCCN(S(=O)(=O)c4ccccc4)C[C@@H]23)cc1,-0.3,1,-28,-0.2,i
CNC[C@H]1Oc2ccc(NC(=O)Nc3ccc(C(F)(F)F)cc3)cc2CC(=O)N([C@H](C)CO)C[C@@H]1C,5.6,-4,-5,3.0,i
O=C(C[C@@H]1C=C[C@H](NS(=O)(=O)c2ccccc2)[C@H](CO)O1)N1CCC(Cc2ccccc2)CC1,5.0,-4,-19,4.3,i
C[C@H]1CCCCO[C@@H](CN(C)S(=O)(=O)c2ccc(Cl)cc2)[C@@H](C)CN([C@@H](C)CO)C(=O)c2cc(NS(=O)(=O)c3cn(C)cn3)ccc2O1,3.2,-1,-14,2.1,i
COc1ccc(S(=O)(=O)N[C@H]2CC[C@H](CC(=O)N3CCN(c4ccccc4)CC3)O[C@H]2CO)cc1,0.3,0,-1,-0.7,i
COc1cccc(C(O)c2nc(-c3ccncc3)cs2)c1 (centres undefined),1.0,-2,-3,3.9,i
C[C@@H]1CCCCO[C@@H](CN(C)C(=O)NC2CCCCC2)[C@H](C)CN([C@@H](C)CO)C(=O)c2cc(NC(=O)NC3CCCCC3)ccc2O1,-0.8,3,1,-0.2,i
# Following part.
SMILES,AF4-AF9 inh,Ecoli rRNA inh,Ecoli rRNA inh OD600,Ecoli rRNA inh RFP,FGF22 binding
CC(C)CC1C(=O)N(Cc2cn(CCC3OCCO3)nn2)CCS(=O)(=O)N1Cc1ccc(-c2ccncc2)cc1 (centres undefined),0.7,-3,-9,-4.0,i
CC(=O)C1(C)C(=O)N(c2ccc(C)cc2)C(=O)N1c1ccc(C)cc1 (centres undefined),-2.4,2,-19,-10,i
CO[C@H]1CN(C)C(=O)c2cc(C#N)ccc2OCC[C@@H]2CC[C@H](OC)[C@@H](CN(C)C(=O)[C@H]1C)O2,0.3,4,7,-6.5,i
C[C@@H]1CN([C@H](C)CO)C(=O)c2cc(NC(=O)c3ccncc3)ccc2O[C@H]1CN(C)Cc1ccc2c(c1)OCO2,-1.6,3,11,0.3,i
C[C@H](CO)N1C[C@H](C)[C@@H](CN(C)S(C)(=O)=O)OCCCC[C@H](C)Oc2ccc(NC(=O)Nc3ccc4c(c3)OCO4)cc2C1=O,-0.2,2,5,1.0,i
COc1ccccc1-c1cnc2c(c1)C(=O)N([C@H](C)CO)C[C@H](C)[C@H](CN(C)CC1CCOCC1)O2,-2.4,-4,1,-4.1,i
C[C@@H]1CN([C@H](C)CO)C(=O)c2cc(NC(=O)Nc3ccc4c(c3)OCO4)ccc2O[C@@H](C)CCCCO[C@@H]1CN(C)Cc1ccc2c(c1)OCO2,11,0,-10,11,i
C[C@@H]1CN([C@@H](C)CO)C(=O)c2cc(-c3cccc(F)c3)cnc2O[C@@H]1CN(C)C(=O)c1cccc(F)c1,-0.6,-3,5,2.3,i
COc1ccc(S(=O)(=O)Nc2ccc3c(c2)C(=O)N([C@@H](C)CO)C[C@H](C)[C@H](CN(C)S(=O)(=O)c2ccc(F)cc2)OCCCC[C@@H](C)O3)cc1,-3.2,2,1,-1.0,i
C[C@@H]1CN([C@@H](C)CO)C(=O)c2cc(-c3cccc(F)c3)cnc2O[C@@H]1CN(C)C,-1.9,1,12,-0.5,i
CCC(=O)N1CC2(C1)[C@@H](c1ccccc1)[C@@H](CO)N2CCC(F)(F)F,-0.5,2,5,-1.8,i
CCC(=O)Nc1ccc2c(c1)OC[C@@H](C)N(C(=O)CC1CC1)C[C@@H](C)[C@@H](OC)CN(C)C2=O,-0.2,-2,-5,-1.9,i
COc1cc2c(c(OC3OC(CO)C(O)C(O)C3O)c1)C(=O)CC(c1ccc(O)cc1)O2 (centres undefined),-0.1,4,-4,-0.6,i
C[C@H](CO)N1C[C@H](C)[C@H](CN(C)S(=O)(=O)c2ccc(Cl)cc2)Oc2ccc(NC(=O)CCN3CCOCC3)cc2C1=O,0.8,1,-1,-1.7,i

# Look-ups from the entries so far.
# Result for C[C@@H]1CN([C@@H](C)CO)C(=O)c2cc(-c3cccc(F)c3)cnc2O[C@@H]1CN(C)C(=O)c1cccc(F)c1 in Ecoli rRNA inh OD600: 5
# Result for CO[C@H]1CN(C)C(=O)c2cc(C#N)ccc2OCC[C@@H]2CC[C@H](OC)[C@@H](CN(C)C(=O)[C@H]1C)O2 in Ecoli rRNA inh OD600: 7
# Result for C[C@@H]1CN([C@H](C)CO)C(=O)c2cc(NC(=O)c3ccncc3)ccc2O[C@H]1CN(C)Cc1ccc2c(c1)OCO2 in AF4-AF9 inh: -1.6

# Compound activity: PubChem, Broad Institute
